Compound activity: PubChem, Fisher Drug Discovery Resource Center
NPYLR7 ag – mosquito NPYLR7 agonism. AID 1259423. hit rate 0.15% among 270,000. activation, % at 10 µM. HEK293T NPYLR7/Galpha15, GCaMP6s calcium fluorescence; in the data active = activation above about 40%;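 note: 0% = vehicle and 100% = reference agonist at the receptor; some compounds past the cut are filed as inactive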
NPYLR7 ag max-min – further read-out of NPYLR7 ag, marked with its call; activation, %; measured here: Max-Min RFU normalised activation; some inactives read as strong as hits;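 span of the calcium signal over five minutes; 0% = vehicle and 100% = native peptide agonist; compound fluorescence can raise it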
The depositor's hits bear a star; & = joins results of further samples.

SMILES	NPYLR7 ag	NPYLR7 ag max-min
CC1=C(C(=O)N(C)C)C(c2ccc(Cl)cc2)NC(=S)N1c1ccc2c(c1)OCCO2 (stereo unspecified)	2	0
O=C(Nc1nccs1)C1=COCCO1	0	8
COc1cccc(C(=O)N(CCN(C)C)Cc2c(-c3ccccc3)noc2N2CCCC2)c1	8	12
O=C(Cc1cccc(Cl)c1)N1CCOC(COCc2ccccc2F)C1 (stereo unspecified)	-5	-8
CCc1[nH]n(-c2cc(C)ccc2C)c(=O)c1C1=C(N2CCOCC2)C(=O)N(c2ccccc2F)C1=O	6&2	14&9
C=CCN1C[C@@H]2C[C@@H](C(=O)NC)N(C(=O)Cc3ccccc3)c3cccc(c32)C1=O	4	15
CCc1cc(N(CCC#N)CCC#N)n2ncnc2n1	0	-1
CC(=O)O[C@H]1[C@@H](CN(C)S(=O)(=O)c2cccs2)[C@H]2O[C@@H]1c1ccccc12	-8	1
COC(=O)c1cccnc1Sc1nc2cc(Cl)ccc2s1	11	22
COc1ccc(-c2cc(-c3ccccc3Oc3ccccc3)cnc2N)c(OC)c1	4	0
CC1CSc2nnc(CCc3ccccc3)n21 (stereo unspecified)	-6	-6
O=C(NCCc1ccccc1)c1cc(C2CC2)n(C2CCS(=O)(=O)C2)n1 (stereo unspecified)	1	-1
CCOc1ccc2c(c1)/C(=C(\C(Cl)=C(Cl)Cl)[N+](=O)[O-])N2	6	3
CCOC(=O)c1ccc(N=CC(C#N)c2nc(-c3cccs3)cs2)cc1 (stereo unspecified)	19	17
Cc1noc(C)c1C(=O)OCC(=O)c1cc(C)n(-c2nccs2)c1C	2	8
CC1(Cc2ccc(Cl)cc2)C(=O)Nc2cccc(Cl)c21 (stereo unspecified)	0	3
Cc1cc(=O)[nH]c(SC(C)C(=O)N(C)Cc2ccc(C)o2)n1 (stereo unspecified)	25	16
Cc1ccc(OCc2nnsc2Cl)c(C(=O)Nc2ccncc2)c1	2	-2
Cc1ccc(-n2nc(-c3ccccc3)c3c2N(CC(=O)NCc2ccc(F)cc2)C(=O)CSC3c2ccccc2Cl)cc1 (stereo unspecified)	-3	1
O=S(=O)(Nc1nc2ccccc2nc1N1CCCC1)c1ccc(F)c(F)c1	-2	6
CCOC(=O)C1CCN(C(=O)CC(c2cccc(F)c2)c2cn(CC)c3ccccc23)CC1 (stereo unspecified)	2	10
Cc1nn2c(NCC(C)C)c3c(nc2c1-c1ccccc1)CCCC3	6	8
CN(C)c1ccc(-c2ccnc3c2CC(C)(C(=O)NCc2ccncc2)O3)cc1 (stereo unspecified)	-14	-15
COc1ccccc1Nc1nc2ccc(SC)cc2s1	-2	7
CC(C)(C)c1ccc(C(=O)Nc2nnc(C3CC3)s2)cc1	-6	-10

A different layout for part of the listing above:
compound | NPYLR7 ag | NPYLR7 ag max-min
Cc1cc(=O)[nH]c(SC(C)C(=O)N(C)Cc2ccc(C)o2)n1 (stereo unspecified) | 25 | 16
Cc1ccc(OCc2nnsc2Cl)c(C(=O)Nc2ccncc2)c1 | 2 | -2
Cc1ccc(-n2nc(-c3ccccc3)c3c2N(CC(=O)NCc2ccc(F)cc2)C(=O)CSC3c2ccccc2Cl)cc1 (stereo unspecified) | -3 | 1
O=S(=O)(Nc1nc2ccccc2nc1N1CCCC1)c1ccc(F)c(F)c1 | -2 | 6
CCOC(=O)C1CCN(C(=O)CC(c2cccc(F)c2)c2cn(CC)c3ccccc23)CC1 (stereo unspecified) | 2 | 10
Cc1nn2c(NCC(C)C)c3c(nc2c1-c1ccccc1)CCCC3 | 6 | 8

Continued.
SMILES	NPYLR7 ag	NPYLR7 ag max-min
O=C(NC(c1ccc(Cl)cc1)c1cnccn1)C1CCN(Cc2cccc(C(F)(F)F)c2)CC1 (stereo unspecified)	8	3
N#CCCN(CCC#N)S(=O)(=O)c1ccc(Cl)cc1	3&1	3&1
Cn1cc(C(=O)Nc2ccc(Br)cc2)c2[nH]c(=O)n(-c3ccc(F)cc3)c(=O)c21	4	0
OCCN1CCN(c2csc(Cl)n2)CC1	6	3
CC(=O)N1CCN(C(=O)c2ccc(CSc3nc(N4CCOCC4)cc(C(F)(F)F)n3)cc2)CC1	1	1
COc1cc2c(cc1OC)C(c1ccc(F)cc1)N(C(=O)/C=C/c1ccccc1)CC2 (stereo unspecified)	0	13
CCC(C)NC(=O)C(C)n1ncn2cccc2c1=O (stereo unspecified)	2	0
O=C(c1cc(-c2ccccc2Cl)nn1-c1ccc(F)cc1)N1CCN(c2ccc([N+](=O)[O-])cc2)CC1	16	16
CNC(=O)c1c(NC(=O)C2CC(C(C)C)=NO2)sc2c1CCCC2 (stereo unspecified)	-4	-9
COc1ccc(-c2ccc(C(=O)NCCCc3c(C)noc3C)cn2)cn1	1	-1
COc1ccc(/C(=C\C(=O)O)c2nccc3cc(OC)c(OC)cc23)cc1OC	2	1
O=C1OC(c2ccc([N+](=O)[O-])cc2Cl)=N/C1=C\C=C\c1ccccc1	-1	-5
COC(=O)C1=C(\N2CCOCC2)CCCC/C=C\1C(=O)OC	17	8
O=C(COCc1ccccc1)N1CCN(c2nc(-c3ccccc3Cl)nc3cc(Cl)ccc23)CC1	18	21
CN1CCN(c2cc(OCCNS(=O)(=O)c3cccs3)ncn2)CC1	1	0
Cc1cccc(Oc2c(CN(CC(O)COCc3ccco3)CC3CC3)c(-c3ccccc3)nn2C)c1 (stereo unspecified)	-5	5
Cc1cc(C)n(-c2nc(-c3ccccc3)cc(=O)n2CC(=O)N2CCN(c3ccccc3)CC2)n1	4	11
CNC(=O)[C@@H]1[C@H]2CN(C(=O)N3CCOCC3)CCN2C[C@H]1c1ccccc1	5	17
O=c1c2ccccc2nc(SCc2ccccc2)n1-c1cccnc1	-6	13
Cc1ccc(N2CC(C(=O)NCC(CO)Cc3ccsc3)CC2=O)cc1 (stereo unspecified)	-4	-6
Cn1cc(CNC2CCN(c3c(F)cccc3F)C2=O)cn1 (stereo unspecified)	1	2
CC(NC(=O)c1ccco1)C(=O)Nc1ccnn1C1CCCC1 (stereo unspecified)	-3	-4
C=C(Br)Cn1c(COc2ccc(Cl)cc2Cl)nc2ccccc21	5	8
COc1ccc(C(C)NC(=O)C2CCN(CCOc3ccc(F)cc3)CC2)cc1OC (stereo unspecified)	8	-1
COCCN(CC(=O)N(CCc1c[nH]c2ccccc12)Cc1ccc(C)cc1)C(=O)c1cccc(Br)c1	22	32

Of the compounds above, these contain a CF3 group:
SMILES	NPYLR7 ag	NPYLR7 ag max-min
O=C(NC(c1ccc(Cl)cc1)c1cnccn1)C1CCN(Cc2cccc(C(F)(F)F)c2)CC1 (stereo unspecified)	8	3
CC(=O)N1CCN(C(=O)c2ccc(CSc3nc(N4CCOCC4)cc(C(F)(F)F)n3)cc2)CC1	1	1

Additional compounds:
SMILES	NPYLR7 ag	NPYLR7 ag max-min
CN=C(C)c1c(O)n(-c2ccccc2)c(=O)[nH]c1=O	0	-7
CCN(CC)CCCC(C)N=C(NC(=O)c1ccc(OC)cc1)OCCOC (stereo unspecified)	17	22
CC(=O)N1N=C(c2cccc(NS(C)(=O)=O)c2)CC1c1ccccc1O (stereo unspecified)	-3	-6
NC(=O)c1cccc(Nc2nc(C(N)C3CCCCC3)cs2)n1 (stereo unspecified)	4	3
CC(C)(C)NC(=O)CSc1ncnc2sc3c(c12)CCC3	-6	-5
Cc1cc(Oc2ccc(Cl)c(C)c2)nc(SCc2cccc([N+](=O)[O-])c2)n1	-5	-3
C=CCNC(=O)NC(=O)COC(=O)CC1CCCC1	6	5
O=C(O)c1cc2c(c(S(=O)(=O)Nc3cccc(Cl)c3F)c1)CCC2	16	13
COCCCNC(=O)CC(c1ccc(Cl)c(Cl)c1)c1c[nH]c2ccccc12 (stereo unspecified)	24	35
O=C1N(Cc2ccc(F)cc2)CCCC1(O)CN1CCN(c2cnccn2)CC1 (stereo unspecified)	22	8
Cn1c(=O)c2ccccc2n2c(COC(=O)C3(C#N)CCCC3)nnc12	-1	-3
CCc1c(C(=O)c2[nH]c(C)c(C(C)=O)c2C)oc2ccc(F)cc12	1	-2
O=C(C1CCCO1)N1CCN(S(=O)(=O)c2ccc(OC(F)(F)F)cc2)CC1 (stereo unspecified)	6	4
CCc1ccc(S(=O)(=O)N(C)CCCN2c3ccccc3CCc3ccccc32)cc1	-9	-13
COC(=O)CCc1c(C)nc2c(c(-c3ccco3)nn2C2CCS(=O)(=O)C2)c1C (stereo unspecified)	10	2
Cc1cccc(-n2c(=O)c3ccc(Cl)cc3n(CC(=O)NC3CC3)c2=O)c1	-3	4
COc1ccccc1NC(=O)N(Cc1ccc(OS(=O)(=O)C(C)C)cc1)C(C)C	13	13
COc1ccc(-n2cc(CNCCCN3CCCC3=O)c(-c3ccccc3Cl)n2)cc1	0	-3
COc1ccc(C2Nc3ccccc3N=C3CC(c4ccccc4)CC(=O)C32)cc1O (stereo unspecified)	-2	-5
FC(F)n1c2ccccc2c2ccccc21	-7	-12
COC(=O)[C@@H]1C[C@@H](NS(=O)(=O)c2ccc3c(c2)OCCN3C)CN1C	5	1
COCCCN(CC(=O)N(CCc1ccc(OC)c(OC)c1)Cc1sccc1C)C(=O)Nc1ccccc1C(F)(F)F	-2	0
CC(C)Sc1nc2ccccc2[nH]1	3	6
COC(=O)c1ccc(CN2CCCCC2c2ccc(F)cc2)o1 (stereo unspecified)	0	-2
c1ccc(CCc2noc(CN3CCN(c4ccccn4)CC3)n2)cc1	3	-2

Later entries:
SMILES	NPYLR7 ag	NPYLR7 ag max-min
CCC(=O)NCCn1nc(-c2cccnc2)ccc1=O	7	-1
COc1cccc(CN(Cc2ccco2)CC(O)Cc2ccccc2)c1 (stereo unspecified)	-2	7
Cc1cc(=O)n2nc(CSc3nnc(Cc4cccs4)n3C3CC3)sc2n1	2	2
Cc1ccc(NC(=O)c2cccn(OCc3ccccc3)c2=O)cc1Cl	5	8
CC1CN2C(=O)CN(C(=O)c3ccc(N(C)C)cc3)CC2c2ccccc21 (stereo unspecified)	3	17
COCCN1CCC(CNC(=O)CCOc2cccc(C)c2C)C1 (stereo unspecified)	1	8
COc1ccc(-c2ccc(=O)n(CCNC(=O)c3ccccc3)n2)cc1	-4	-3
CCS(=O)C1CCCC(NC(=O)NC2CCCC2SC)C1 (stereo unspecified)	3	1
O=C(OCc1cc(=O)oc2cc3c(cc12)CCC3)c1cc2ccccc2oc1=O	7	14
Cc1sc2ncnc(SCC(=O)OCC(C)C)c2c1C	0	-2
COc1ccc(C(=O)Nc2nc(-c3cccs3)cs2)cc1	-13	-18
Cc1ccc(NC(=O)CCNC(=O)c2c(C)cc(C)n(C)c2=O)cc1	0	0
CCCCCCCC(=O)N1CCC[C@@H]1C(=O)NCCCNC(=O)c1ccccc1	2	20
CC(=O)c1ccccc1NCC(=O)NC(C)c1ccc(Cl)cc1Cl (stereo unspecified)	11	9
O=S(=O)(NCCc1csc2nc(-c3ccc(F)cc3)nn12)c1ccccc1	-17	-17
O=S(=O)(c1ccccc1)N1C2CCC(O)(CC2)C1CN1CCOCC1 (stereo unspecified)	17	29
COc1cccc(-c2ccc(NC(=O)C3CCCN(C(=O)C4=CCCC4)C3)cc2)c1 (stereo unspecified)	-1	-7
O=C(CC(c1cccc2c1OCO2)c1c[nH]c2ccccc12)NCc1cccc(C(F)(F)F)c1 (stereo unspecified)	3	8
CC(C)(C)OC(=O)N[C@@H](CCC(N)=O)C(=O)NCCc1c[nH]c2ccccc12	-6	-14
CC(=O)c1ccc(NCN2C(=O)c3ccc([N+](=O)[O-])cc3C2=O)cc1	-10	-16
CCC(=O)N1CCN(c2ccc([N+](=O)[O-])cc2)CC1	0	-4
CCOc1ccc(CC(=O)Oc2c(S(=O)(=O)c3ccccc3)c(C)nn2C(C)(C)C)cc1	0	42
Cc1ccc(Cn2nccc2NC(=O)c2ccc(S(=O)(=O)N3CCOCC3)cc2)cc1	3	3
O=C(Cn1nc(-c2ccccc2)oc1=O)N1CCC(C(=O)N2CCCCCC2)CC1	13	7
COc1cc(NC(C)C(=O)NC2CCCC(C)C2C)ccc1N1CCCC1=O (stereo unspecified)	4	0

Entries above with bromine (three):
SMILES	NPYLR7 ag	NPYLR7 ag max-min
Cn1cc(C(=O)Nc2ccc(Br)cc2)c2[nH]c(=O)n(-c3ccc(F)cc3)c(=O)c21	4	0
C=C(Br)Cn1c(COc2ccc(Cl)cc2Cl)nc2ccccc21	5	8
COCCN(CC(=O)N(CCc1c[nH]c2ccccc12)Cc1ccc(C)cc1)C(=O)c1cccc(Br)c1	22	32

Rewritten with two lines to a compound: part of the list above.
Sequence of screens: NPYLR7 ag	NPYLR7 ag max-min
COCCN1CCC(CNC(=O)CCOc2cccc(C)c2C)C1 (stereo unspecified)
  1	8
COc1ccc(-c2ccc(=O)n(CCNC(=O)c3ccccc3)n2)cc1
  -4	-3

(next part)
SMILES	NPYLR7 ag	NPYLR7 ag max-min
COc1cccc(C2NC(=O)NC(C)=C2C(=O)Nc2ccc(Cl)cc2)c1OC (stereo unspecified)	-3	-11
Cc1cc(C)c2c(=O)cc(C)[nH]c2c1	5	4
CCOC(=O)C1(Cc2ccccc2)CCCN(C(=O)Nc2cccc(C(C)=O)c2)C1 (stereo unspecified)	-7	-11
CC(=O)NC(c1ccc(Cl)cc1)C1CCCCC1=O (stereo unspecified)	1	-1
CSc1cccc(NC(=O)C2CCN(c3cc(Nc4ccccc4)nc(N)n3)CC2)c1	4	3
CCC(C)N(Cc1ccc(OC)c(OS(=O)(=O)c2cccc(C(F)(F)F)c2)c1)C(=O)c1cc(OC)cc(OC)c1 (stereo unspecified)	-2	8
C#CCCCCCCCCCCCc1ccco1	-5	-8

A portion of the library; rates above refer to the full screens.
